# UCH37 DUB inh = human UCH37 deubiquitinating enzyme inhibition; Q9Y5K5; purified proteasome/UCH37, Ub-AMC cleavage fluorescence; AID 588478; 330,000 tested, 0.33% active; inhibition, % (test concentration not listed);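 active = mean of two replicates above 20%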;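 note: 0% = compound-free wells with enzyme and 100% = wells lacking proteasome; stock transfer was 100 nL into about 20 µL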
# Target sequence (Q9Y5K5 whole entry, looked up): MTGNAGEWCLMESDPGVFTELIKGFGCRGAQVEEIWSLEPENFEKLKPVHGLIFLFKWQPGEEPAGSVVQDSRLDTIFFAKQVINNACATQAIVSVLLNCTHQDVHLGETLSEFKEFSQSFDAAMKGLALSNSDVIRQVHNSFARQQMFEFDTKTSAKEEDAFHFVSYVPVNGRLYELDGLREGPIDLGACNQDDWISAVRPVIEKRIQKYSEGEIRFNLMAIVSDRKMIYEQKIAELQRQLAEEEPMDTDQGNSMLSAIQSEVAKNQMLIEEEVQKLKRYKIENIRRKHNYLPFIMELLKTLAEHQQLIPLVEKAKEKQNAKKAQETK
#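 Assay system: Proteasome-bound UCH37. Buffer or medium: pH 7.4 Tris-HCl (50 mM) with ovalbumin, ATP-MgCl2, DTT. Incubation: 30 min preincubation with enzyme, 25 min cleavage at room temperature. Measured by: fluorescence, ex 355 nm, em 460 nm. Read-out basis: percent inhibition. Control set: wells without proteasome as full block, compound-free enzyme plus substrate as uninhibited.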
# RanGTP-Impb inh = inhibitors of RanGTP-importin-beta interaction, primary screen, biochemical, FRET, CFP-Ran, YFP-importin-beta, homogeneous | inhibition, % (test concentration not listed) | cell-free CFP-Ran/YFP-importin-beta FRET ratio | AID 2216 | 300,000 tested, 1.1% active;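 active = most replicates above 15%; inconclusive = exactly half above 15%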;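 note: 0% = DMSO wells and 100% = Ran loaded with GDP instead of GTP; wells of about 40 µL received 100 nL stock; the first replicate is given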
# Calb FLC = C. albicans growth modulation with fluconazole; AID 1979; growth inhibition, % (test concentration not listed); C. albicans CaCi-2 (fluconazole-resistant clinical isolate) + fluconazole, Alamar Blue growth, 48 h; 300,000 tested, 0.57% active;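 active = most replicates above 75%; inconclusive = exactly half above 75%; inactive = most below 75%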;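 note: all wells also contain fluconazole at 8 µg/ml as a sub-toxic cotreatment; 0% = median of DMSO wells and 100% = median of geldanamycin control wells; wells of about 8 µL received 7.5 nL stock; the first replicate is given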
# Beta apoptosis = beta cell apoptosis inhibition; protection from apoptosis, % (concentration not given with the values); AID 435005; INS-1E cytokine-induced death, ATP luminescence, 48 h; percent of positive-control rescue, neutral wells zero; 300,000 tested, 0.8% active;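 active = all replicates at 75% or more, or half of them and the mean; inconclusive = half reach 75% but not the mean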;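 note: 0% = cytokine-treated negative control wells and 100% = positive control rescue; higher means more ATP so stronger rescue from cytokine killing; wells of about 40 µL received 100 nL stock; the first replicate is given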
# LANA-H2B inh = blocks KSHV LANA binding to histone H2A/H2B; cell-free LANA-H2A/H2B peptide, fluorescence polarization; inhibition, % (concentration not given with the values); AID 2629; Q9QR71; 320,000 tested, 0.6% active; in the data active = inhibition mostly above about 10%, no sharp cut-off; inactive = mostly below about 6.7%;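 note: stock transfer was 7.5 nL into about 10 µL; 0% = median of vehicle wells and 100% = median of positive control wells; one replicate is shown; the record names a cut of 25% in any replicate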
# Bfl-1 A1 inh = inhibitors of the anti-apoptotic protein A1, read as caspase activation; MEF A1-2A-BIM cells, Caspase-Glo 3/7 luminescence, 3 h; percent of clofoctol response, vehicle zero; 330,000 tested, 0.066% active; caspase activation, % (no concentration beside the values);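 active = over half of replicate activation scores above 10%, or exactly half above 10 with the replicate mean above 10; inconclusive = replicate mean below 10 yet half the replicates above 10; inactive = over half of replicates below 10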;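 note: wells of about 30 µL received 50 nL stock; many hits fall short of the cut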
# Beta2AR agonist = activates human beta-2 adrenergic receptor causing internalization | P07550 | Am2.2-beta2AR cells, FAP receptor internalization, flow cytometry; reference of the scale not given here | response, % (test concentration not listed) | 340,000 tested, 0.43% active;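 active = response above a set limit, near 3 SD of response in nonfluorescent compounds, cut at about 42% in these data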;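 note: stock transfer was 100 nL into about 11 µL; a reference agonist was the positive control; negative values mostly stem from fluorescent compounds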
# Target sequence (P07550 whole entry, looked up): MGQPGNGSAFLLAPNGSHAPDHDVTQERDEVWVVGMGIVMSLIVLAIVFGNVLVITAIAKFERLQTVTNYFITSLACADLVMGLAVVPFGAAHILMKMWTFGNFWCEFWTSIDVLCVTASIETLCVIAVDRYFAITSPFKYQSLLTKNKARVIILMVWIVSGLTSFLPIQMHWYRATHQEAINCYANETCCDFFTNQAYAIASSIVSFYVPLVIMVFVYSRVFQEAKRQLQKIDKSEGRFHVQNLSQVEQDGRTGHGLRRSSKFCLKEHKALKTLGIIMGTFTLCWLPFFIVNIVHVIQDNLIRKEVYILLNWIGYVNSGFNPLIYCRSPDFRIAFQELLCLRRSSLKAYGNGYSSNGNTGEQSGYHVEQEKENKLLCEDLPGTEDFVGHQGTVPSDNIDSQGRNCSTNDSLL
# T cruzi repl = blocks replication of Trypanosoma cruzi; 300,000 tested, 1.4% active; inhibition, % (concentration not given with the values); T. cruzi beta-gal in NIH3T3, luminescence, 90 h; AID 1885;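 active = mean inhibition across valid replicates above about 55%, limit read from the data; inconclusive = mean below that limit but half or more replicates reach it; inactive = mean below it, under half of replicates reach it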;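 note: signal also drops with host cell toxicity which is not excluded here; 0% = plate median of DMSO wells and 100% = zero luminescence signal; higher percent means less beta-gal luminescence so fewer parasites; stock transfer was 50 nL into about 50 µL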
# * = called active by the depositor; ? = inconclusive; . = no result given.
SMILES,UCH37 DUB inh,RanGTP-Impb inh,Calb FLC,Beta apoptosis,LANA-H2B inh,Bfl-1 A1 inh,Beta2AR agonist,T cruzi repl
COc1ccc(C2=NN(C(=O)CSc3nnc(C)c(=O)n3N)C(c3ccco3)C2)cc1 (stereo not given),-2.4,-4.0,-7,-4,-0.3,-0.7,-5,10
Cc1ccoc1C(=O)N1CCN(C(=O)c2occc2C)CC1,3.9,2.8,3,-3,-3.0,1.0,6,3
Cc1cc(C)cc(C(=O)NCC(=O)OCC(=O)NC2CCCc3ccccc32)c1 (stereo not given),2.1,.,.,2,3.9,0.1,3,.
Cc1cccc2nc(CSc3ccc(Cl)cc3)cn12,7.1,2.8,-69,-6,5.9,-4.2,-23,3
CCOC(=O)C1(C)C=C(Nc2cccc(OC)c2)C(=O)N1c1ccccc1 (stereo not given),.,2.1,-1,0,-12,0.4,6,9
Cc1ccc(-c2nn(-c3ccccc3)cc2/C=C2\SC(=S)N(CC(=O)O)C2=O)cc1,21*,-1.7,31,10,-1.3,-1.2,13,2
COc1ccc(C(=O)Nc2sc3c(c2C(=O)O)CC(C)(C)OC3)cc1,7.1,0.3,-14,-9,-5.5,-5.8,1,-23
Cc1ccc(SCc2ccc(C(=O)Nc3cccc([N+](=O)[O-])c3)cc2)cc1,5.4,-0.1,-18,-3,-6.8,-0.7,-4,-2
CCOc1ccc(NC(=O)C2Cc3ccccc3CN2S(=O)(=O)CC)cc1 (stereo not given),2.3,-2.6,-44,-7,1.7,-0.1,-7,15
CCC12CN3CC(CC)(CN(C1)C3c1ccc([N+](=O)[O-])o1)C2=O (stereo not given),3.5,3.8,3,2,-2.1,0.1,8,60*
O=C(CCNC(=O)c1ccco1)Nc1ccc(OC(F)F)c(Cl)c1,1.4,-3.3,-11,-7,-0.7,0.5,7,-18
COCCNC(=O)C(=O)NCC1OCCN1S(=O)(=O)c1cc(F)ccc1F (stereo not given),3.6,1.6,6,-2,-8.8,0.5,-1,0
Cc1cc(C(C)(C)C)cc(C)c1C(=O)O,1.1,1.8,5,-9,-0.6,0.5,-1,2
CCC(=O)Nc1cc(-c2nn(C)c(=O)c3ccccc23)ccc1N1CCOCC1,1.8,?,4,-11,1.7,0.9,0,-4
Cc1ccccc1-n1cc(CNC(=O)C2CCC(=O)N(C3CC3)C2)cn1 (stereo not given),1.4,-2.4,0,-8,-1.7,0.8,3,-29
CC(=O)c1cccc(NC(=O)c2cc(=O)c3ccccc3o2)c1,-18,2.0,-3,0,-0.5,0.6,-8,-6
Cc1cnn(C(=S)NCc2ccc(Cl)cc2)c1,2.0,?,-13,0,4.0,0.9,.,-14
Cc1ccc2c(NC(=O)C3CC3)cccc2n1,3.3,?,5,3,0.4,0.0,1,-5
O=c1c(Cc2ccc(F)cc2)c(O)ccn1Cc1ccc(Cl)cc1Cl,3.1,1.0,3,3,9.4,-0.1,0,-10
COC(=O)[C@H](C)NC(=O)Nc1cc(Cl)ccc1C,1.4,-3.4,4,4,0.7,0.4,-8,4
CC1CCN(Cc2nc3c(c(=O)n(C)c(=O)n3C)n2CCc2ccccc2)CC1,6.4,-0.3,0,0,2.9,-0.2,-10,7
COC(=O)c1ccc(Cl)c(S(=O)(=O)N2CCCC2)c1,2.6,0.2,-12,-3,1.6,1.5,0,-10
COc1ccc(NC(=O)c2ccc(Cl)c(S(=O)(=O)N3CC(C)OC(C)C3)c2)cn1 (stereo not given),-0.7,.,.,-1,4.9,-1.7,-11,.
Cc1scc(C(=O)Nc2ccon2)c1-c1ccccc1,0.8,.,2,-4,5.8,0.2,-25,-1
CCN(CC)S(=O)(=O)c1ccc(N2CCOCC2)c(NC(=O)c2ccc(=O)n(C)n2)c1,1.5,.,.,8,-2.0,-1.2,2,.
CCCCN(CC)CCCNC(=O)c1cn(C)c(=O)c2c1c1ccccc1n2C,-98,-1.7,5,-3,-0.3,0.6,-7,14
Cc1ccc(S(=O)(=O)Nc2ccccc2CNc2ccccn2)cc1,1.1,-1.6,35,1,-3.3,0.6,-1,3
COc1ccc(NC(=O)/C=C/c2ccc(OC)c(OC)c2)cn1,13,2.2,7,0,-2.6,-1.1,2,-8
O=C(/C=C/c1ccc(F)cc1)N1CCCN(C(=O)/C=C/c2ccc(F)cc2)CC1,4.7,-5.1,18,-4,4.0,0.5,-8,-16
Cc1ccc(NC(=O)CCN2C(=O)OC(C)(C)C2(C)O)cc1 (stereo not given),0.1,2.6,28,1,-5.3,0.6,-2,-9
Cc1cccc(C(=O)NC2CC3CCCC(C2)N3C(=O)NC2CCCCC2)c1 (stereo not given),1.1,0.6,4,-6,1.3,0.0,1,1
OCCC1CN(Cc2cccn2-c2nccs2)CCN1C1CCCCC1 (stereo not given),0.5,-0.6,-35,-3,2.9,0.8,2,2
COc1ccc(S(=O)(=O)N(C)C)cc1NC(=O)CN1C(=O)NC2(CCCC2)C1=O,1.2,7.4,2,-2,4.6,-0.3,-6,-6
CCN(CC)C(=O)COC(=O)c1ccc(C)c(NC(=O)c2ccco2)c1,1.3,-0.6,-6,-1,-1.6,-0.9,1,-6
Cc1cc2cc(C#N)c(SCC(=O)Nc3nonc3C)nc2cc1C,-16,0.9,38,1,9.8,-0.6,-3,10
CCOC(=O)C1=C(C)N=c2s/c(=C\c3cccc(OCC(=O)O)c3)c(=O)n2C1c1ccccc1 (stereo not given),.,0.7,1,.,-3.7,0.2,8,2
CCN(CC)CCOC(=O)/C=C/c1ccccc1,3.8,1.8,-2,-4,0.4,-0.8,5,6
Cc1nnc(SCC(=O)NNC(=O)COc2ccc(Br)cc2)n1C,2.1,.,.,-1,1.4,0.0,2,.
COc1ccc(OC)c(NC(=O)C(CC(C)C)NC(=O)C2CCCCC2)c1 (stereo not given),2.9,-0.9,-23,.,3.2,-1.2,-2,26
COc1cc(O)oc1C=Nc1ccc(C(F)(F)F)cc1,4.8,5.4,7,3,5.9,-6.3,.,-13
COc1ccc(NC(=O)CSC2=NC(=O)CC(C)=N2)cc1,5.3,-2.9,11,-2,4.2,0.5,-11,-2
COc1ccc(/C=N/NC(=O)c2ccncc2)cc1[N+](=O)[O-],.,?,-16,1,9.8,0.3,1,-2
Cc1ccc(CN(CC(=O)NCc2ccccn2)S(=O)(=O)c2ccccc2)cc1,0.9,5.1,-5,1,-1.1,1.4,-22,4
Cc1cccc(C)c1NC(=O)CNC(=O)c1ccc(N2CCCC2)c([N+](=O)[O-])c1,3.7,.,.,-2,-2.2,0.1,-10,.
COc1ccc(C(=O)NCCCSc2ccccc2)cc1F,4.8,-0.3,-5,-2,-0.4,0.7,-9,2
C/C(CC(=O)Nc1ccc(OCc2ccccc2)cc1)=N\NC(=O)C(=O)Nc1cccc(C)c1,.,1.5,4,-2,6.0,3.2,2,-17
Cc1cccc(NC(=O)CCSc2nnc(Cc3ccccc3)o2)c1,3.0,-1.3,8,-3,-0.6,-0.6,-6,-7
CSc1n[nH]c(=O)n1-c1cccc(Cl)c1,0.6,-0.4,2,-6,-0.7,1.2,5,-3
CC(=O)Nc1cccc(-c2nc3ccccc3s2)c1,-0.6,.,4,1,-2.2,0.1,-26,3
O=Cc1cccn1-c1ccc(O)cc1,1.8,-2.6,-8,0,3.2,0.2,-3,3
CS(=O)(=O)N(CC(=O)NCc1ccc2c(c1)OCO2)Cc1ccccc1,0.3,3.1,-20,-1,0.7,0.5,4,-5
COc1ccc(N(C(=O)Cn2nnc3ccccc32)C(C(=O)NCc2ccco2)c2ccncc2)cc1 (stereo not given),5.0,-1.9,-9,-12,-8.0,-0.5,-7,-5
Cc1ccc(CNC(=O)CNC(=O)c2ccco2)cc1,1.5,2.5,1,-2,1.3,-0.8,-1,-15
O=C(NCCc1ccccc1F)N[C@@H](Cc1ccccc1)C(=O)O,0.7,-0.1,-2,-2,1.9,0.1,-1,1
CCCOC1CCCN(C(=O)c2ccc(OC3CCN(Cc4ccccn4)CC3)cc2)C1 (stereo not given),6.5,5.1,5,4,0.3,0.2,-8,1
CC(C)Oc1cccc(C(=O)C2CCCN(C(=O)c3ccnn3C)C2)c1 (stereo not given),-22,0.0,-3,0,-4.0,-2.2,-4,10
O=C(Nc1ccc(F)cc1)C1CC2CCC1C2 (stereo not given),-0.8,?,-1,0,-3.1,-0.5,-2,-18
Cc1ccn2c(NC3CCCCC3)c(-c3cccc(-c4cccc(Cl)c4)c3)nc2c1,.,0.1,-10,-1,2.2,0.5,23,43
COCCNC(=O)C(c1ccc(O)cc1)N(C(=O)CCC(=O)Nc1nccs1)c1ccc(C)cc1 (stereo not given),1.2,5.6,-6,-13,-2.0,-0.5,-5,-13
C=CCNC(=O)c1onc(CSc2ccccc2F)c1C(=O)O,0.4,0.7,6,1,-2.6,-0.1,4,-7
# (more compounds)
SMILES,UCH37 DUB inh,RanGTP-Impb inh,Calb FLC,Beta apoptosis,LANA-H2B inh,Bfl-1 A1 inh,Beta2AR agonist,T cruzi repl
O=C(CN1C(=O)CSc2ncccc21)Nc1ccccc1F,-1.6,4.8,-12,-8,0.3,0.5,9,-17
O=C(CSc1nc2ccccc2s1)Nc1cc(S(=O)(=O)N2CCOCC2)ccc1O,3.9,-4.5,-22,-3,-0.5,-1.2,-3,-2
S=C(NCc1ccccc1)NC1CCCCC1,.,-0.9,-4,-11,7.2,0.9,-9,-5
O=C1C[C@@H](c2ccccc2)Oc2cc(O)cc(O)c21,0.5,2.7,-6,0,-1.5,-2.1,-6,-5
COCc1cc(/C=N\NC(=O)COc2ccc(Cl)cc2)ccc1OC,.,-2.3,-2,-1,14,-0.2,3,4
Cn1c(Cl)c(/C=N/OC(=O)c2cccc(Cl)c2)c2ccccc21,.,2.6,-7,1,0.1,0.4,-5,-11
COc1ccc(-c2nc(NC(C)=O)sc2-c2ccccc2)cc1,-4.2,-4.0,-18,.,-0.1,-0.7,-4,23
Clc1ccccc1-c1ccc2ncnc(NCc3cccnc3)c2c1,2.4,.,.,4,2.8,0.5,-5,.
O=C(N(c1ccccn1)c1ccccn1)C12CC3CC(CC(C3)C1)C2,-2.2,8.1,-1,-4,-3.7,0.6,-5,15
COc1ccc(CCNC(=O)CCNS(=O)(=O)c2cccc3nonc23)cc1OC,6.6,-0.1,4,0,-17,-0.6,3,-14
O=Cc1ccccc1Oc1ccccc1,-5.5,-2.2,0,-2,1.9,1.7,-3,-4
COC(=O)c1c(NC(=O)C2CC2)sc2c1CCN(C(C)=O)C2,4.2,1.2,23,6,3.0,0.0,-22,0
CCNC(=O)CSc1nnc(-c2cccs2)o1,-2.8,-2.4,-24,0,3.4,0.1,6,-23
CC(Cn1cncn1)C(=O)N1CCN(S(=O)(=O)c2ccc(Cl)cc2)CC1 (stereo not given),-0.6,0.9,-7,-6,0.9,1.4,-4,3

# From PubChem BioAssay
